Source: PubChem
GALR2 ag – GALR2 receptor agonists, primary screen, cell-based; 0.48% of 140,000 active; AID 803, 2007; activation, %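 (tested at 5 µM)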; Galanin receptor type 2 (Homo sapiens), O43603; GALR2-expressing cells, agonist activation read-out;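 active = above mean plus 3 SD of all compounds, about 5% in these data, not always enough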;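 note: 0% = vehicle buffer wells and 100% = reference agonist at full effect; tested in CHO reporter cells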
Target sequence (O43603 whole entry, looked up): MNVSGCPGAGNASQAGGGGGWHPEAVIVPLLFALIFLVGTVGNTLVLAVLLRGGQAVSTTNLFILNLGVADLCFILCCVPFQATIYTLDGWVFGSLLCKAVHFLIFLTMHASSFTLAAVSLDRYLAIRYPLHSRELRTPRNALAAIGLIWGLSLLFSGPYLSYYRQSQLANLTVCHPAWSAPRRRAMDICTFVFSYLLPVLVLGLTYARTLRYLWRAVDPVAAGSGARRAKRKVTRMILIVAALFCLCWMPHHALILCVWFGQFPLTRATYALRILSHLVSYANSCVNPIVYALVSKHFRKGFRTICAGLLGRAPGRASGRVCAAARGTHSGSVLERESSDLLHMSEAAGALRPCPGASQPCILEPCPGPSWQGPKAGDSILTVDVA
INS promoter inh – inhibitors of insulin promoter-driven GFP, primary screen, imaging, TRM-6 cells (human fetal islet line), eGFP reporter, cell count | reporter expression induced with tamoxifen | inhibition, % at 2 µM | 0.9% of 130,000 active | AID 1273, 2008;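 active = inhibition above the mean plus 3 SD, with well images judged a real hit on visual review, cut at about 60% in these data, passing the limit was not always enough; inconclusive = inhibition over the cutoff but images rejected on review; inactive = inhibition not above the cutoff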
RGS16-Gao – modulators of RGS16 binding to Galphao, primary screen, biochemical, human proteins, multiplexed bead flow cytometry. bead-based flow cytometry RGS16-Galphao binding, fluorescence; actives lie on both sides. Regulator of G-protein signaling 16 (Homo sapiens) + Guanine nucleotide-binding protein …. 0.38% of 220,000 active. binding response (% of control), % at 10 µM;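 active = below 25% or above 175%, edge rows of some plates excepted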;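 note: Galphao activated by GDP with aluminum fluoride before binding; 100% = wells without compound and 0% = beads without RGS; some results beyond the cut were filed as inactive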
Target sequence (O15492 whole entry, looked up): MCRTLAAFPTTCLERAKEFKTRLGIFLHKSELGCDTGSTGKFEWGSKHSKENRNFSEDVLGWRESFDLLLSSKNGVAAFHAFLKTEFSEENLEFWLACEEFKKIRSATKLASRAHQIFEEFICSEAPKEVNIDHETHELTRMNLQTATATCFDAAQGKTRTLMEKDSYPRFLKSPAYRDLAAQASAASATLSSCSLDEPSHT
Target sequence (P09471 whole entry, looked up): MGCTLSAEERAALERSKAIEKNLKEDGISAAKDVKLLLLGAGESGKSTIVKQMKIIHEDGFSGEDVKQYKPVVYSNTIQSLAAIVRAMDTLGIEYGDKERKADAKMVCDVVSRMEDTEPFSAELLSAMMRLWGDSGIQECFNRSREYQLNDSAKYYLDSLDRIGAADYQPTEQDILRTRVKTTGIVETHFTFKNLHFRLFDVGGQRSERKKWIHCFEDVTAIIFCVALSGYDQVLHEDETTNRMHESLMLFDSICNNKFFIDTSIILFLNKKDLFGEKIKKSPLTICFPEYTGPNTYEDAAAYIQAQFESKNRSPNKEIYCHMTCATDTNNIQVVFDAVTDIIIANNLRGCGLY
HSV augment – enhancers of HSV replication in host cells, fold increase, host cell viability | HSV replication augmentation in cells | maximum fold increase | 0.005% of 220,000 active | AID 1956, 2009;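 active = peak rise of 1.5-fold or more in the series; inconclusive = self-fluorescent or not available for retest; tested in PC3 cells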;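 note: first round at 10 µM; read as green reporter fluorescence; hits show the peak of a series up to 25 µM; 1 = signal of infected wells without compound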
PKD1 inh – inhibitors of human PKD1 kinase, biochemical, fluorescence polarization | inhibition, %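 (about 10 µM by stock and volumes)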 | 0.056% of 200,000 active | PKD1 kinase fluorescence polarization assay | Serine/threonine-protein kinase D1 (Homo sapiens), Q15139;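 active = inhibition of 50% or more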;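 note: controls were vehicle for no effect and a reference inhibitor for full effect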
INS promoter inh cell count – further read-out of INS promoter inh, marked with its call; normalized cell count, %; measured here: cell count, toxicity; reference of the scale not given here;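 cells exposed to compound for 48 h; stained nuclei by imaging scaled within each plate; lower means fewer cells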
HSV augment primary fold – recorded beside HSV augment, whose call it bears; fold increase; compound at 10 µM; measured here: primary screen fold increase 10 uM; tested in PC3 cells;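 GFP signal in the first replicate; 1 = infected wells without compound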
The depositor's hits bear a star; i = inactive; u = inconclusive; x = not tested or not shown. Rows are unselected (roughly 1.3% active in at least one column).

SMILES | GALR2 ag | INS promoter inh | INS promoter inh cell count | RGS16-Gao | HSV augment | HSV augment primary fold | PKD1 inh
Cc1ccc(-c2nc(C#N)c(NCCN3CCCCC3)o2)cc1 | -0.5 | -34 | 152 | 102 | i | 0.67 | 0
CCN(CC)CCN1C(=O)c2ccccc2NC1c1ccc(N(C)C)cc1 (configuration not stated) | -1.4 | 33 | 105 | 113 | i | 1 | -5
COc1ccc(S(=O)(=O)NC2CC(C)(C)NC(C)(C)C2)cc1C(C)C | x | x | x | 103 | i | 0.96 | x
Cc1ccc([N+](=O)[O-])cc1-c1ccc(/C=N/NC(=O)c2cc3c(ccc4ccccc43)o2)o1 | -0.8 | 7 | 94 | 102 | x | x | -8
Cn1c(=O)[nH]c(=O)c2c1nc(Br)n2CCCSc1nc2ccccc2o1 | 0.1 | -65 | 84 | 102 | i | 0.84 | -5
CCCCOc1ccc(/C=C/C(=O)OCC(=O)c2c(N)n(C)c(=O)n(C)c2=O)cc1OCC | x | 53 | 158 | 100 | i | 0.86 | -4
O=c1ncn(-c2ccc(F)cc2)c2ncccc12 | -2.5 | 0 | 123 | 78 | i | 0.98 | -10
COc1ccc2oc(C(=O)OCC(=O)NC(=O)NC(C)C)c(C)c2c1 | -2.5 | -11 | 98 | 104 | i | 0.88 | -6
CC(=O)N1c2ccccc2N2C(c3c(C)c(C)cc(C)c3C)=NON12 | x | -36 | 42 | 115 | i | 1 | 2
O=C(O)Cn1ncc2c1-c1ccoc1CC2 | -1.1 | x | x | 106 | i | 0.79 | -9

The list goes on; the last six above are carried over.
SMILES | GALR2 ag | INS promoter inh | INS promoter inh cell count | RGS16-Gao | HSV augment | HSV augment primary fold | PKD1 inh
Cn1c(=O)[nH]c(=O)c2c1nc(Br)n2CCCSc1nc2ccccc2o1 | 0.1 | -65 | 84 | 102 | i | 0.84 | -5
CCCCOc1ccc(/C=C/C(=O)OCC(=O)c2c(N)n(C)c(=O)n(C)c2=O)cc1OCC | x | 53 | 158 | 100 | i | 0.86 | -4
O=c1ncn(-c2ccc(F)cc2)c2ncccc12 | -2.5 | 0 | 123 | 78 | i | 0.98 | -10
COc1ccc2oc(C(=O)OCC(=O)NC(=O)NC(C)C)c(C)c2c1 | -2.5 | -11 | 98 | 104 | i | 0.88 | -6
CC(=O)N1c2ccccc2N2C(c3c(C)c(C)cc(C)c3C)=NON12 | x | -36 | 42 | 115 | i | 1 | 2
O=C(O)Cn1ncc2c1-c1ccoc1CC2 | -1.1 | x | x | 106 | i | 0.79 | -9
CCOC(=O)N1CCC(NC(=O)Cn2ncc3c2-c2cc(C)ccc2OC3)CC1 | -1.6 | x | x | 103 | i | 0.75 | -10
COc1ccc(Nc2nc(Nc3ccc(OC)cc3)nc(SC3=NCCS3)n2)cc1 | -2.6 | 19 | 70 | 99 | u | x | 4
O=C(Cc1n[nH]c(=O)c2ccccc12)OCc1c(Cl)cccc1Cl | x | x | x | 98 | i | 0.95 | x
CC1=CC2=NC(=O)/C(=C\c3cc(C)n(-c4ccccc4)c3C)C(=N)N2O1 | 0.6 | 14 | 118 | 119 | i | 1 | -15
COC(=O)Cn1c(=NC(=O)c2cc(OC)c(OC)c(OC)c2)sc2cc(OC)ccc21 | 1.5 | x | x | 101 | i | 0.98 | 1
CCOC(=O)Cn1c(Br)nc2c1c(=O)[nH]c(=O)n2C | -3.5 | 36 | 87 | 98 | i | 0.88 | -3
CCN(CC)CCCN(Cc1cc2cc3c(cc2[nH]c1=O)OCO3)C(=S)NCc1ccco1 | x | 50 | 87 | 100 | i | 0.91 | -3
Clc1ccc(-c2nn3cnnc3s2)c(Cl)c1 | -1.1 | 0 | 105 | 107 | i | 0.85 | -13
O=C(Nc1nc2ccccc2s1)C1CC(=O)N(c2ccc(Br)cc2)C1 (configuration not stated) | -1.5 | 67* | 118* | 101 | i | 0.79 | 5
O=C(NNC(=S)NCc1ccccc1)c1cccc([N+](=O)[O-])c1 | x | x | x | 105 | i | 0.92 | -2

Quoted from the listing.
`CCOC(=O)Cn1c(Br)nc2c1c(=O)[nH]c(=O)n2C` in PKD1 inh: -3
`CCOC(=O)N1CCC(NC(=O)Cn2ncc3c2-c2cc(C)ccc2OC3)CC1` in PKD1 inh: -10

The list continues.
SMILES | GALR2 ag | INS promoter inh | INS promoter inh cell count | RGS16-Gao | HSV augment | HSV augment primary fold | PKD1 inh
O=C(COC(=O)c1ccc([N+](=O)[O-])s1)NCc1ccc(F)cc1 | -2.2 | 40 | 79 | 108 | i | 0.97 | 2
COc1ccc(OC)c(NC(=O)C2CCCNC2=O)c1 (configuration not stated) | -2.1 | 27 | 84 | 101 | i | 1 | -13
Cc1cc(C=NCCCO)c(C)n1-c1cc(Cl)ccc1Cl | x | 14 | 92 | 57 | i | 1.1 | -5
Cc1cc(-c2ccccc2)nc(SCc2ccc(C(=O)O)o2)n1 | -1.1 | -365 | 34 | 106 | i | 0.91 | 0
CC(=O)C(Sc1ccc2nnc(-c3ccc(F)cc3)n2n1)C(C)=O | -1.6 | x | x | 101 | i | 0.8 | -6
CCN(c1ccccc1)S(=O)(=O)c1ccc(OC)c(NC(=O)C2CC(=O)N(Cc3ccccc3)C2)c1 (configuration not stated) | x | x | x | 111 | i | 0.73 | x
Cc1cc(Cl)ccc1NC(=S)N1CCOCC1 | 0.1 | -147 | 120 | 104 | i | 0.95 | 4
O=C(Oc1cc(Cl)cc(Cl)c1)c1cnc2n(c1=O)CCS2 | x | x | x | 106 | i | 0.95 | x
CC(C)(C)c1ccc(C2(C)NC(=O)N(CC(=O)c3ccc[nH]3)C2=O)cc1 (configuration not stated) | -3.0 | -5 | 201 | 76 | i | 0.89 | -13
CNC(=O)CCc1nc(-c2ccc(C(C)(C)C)cc2)no1 | -1.7 | x | x | 101 | i | 0.94 | 1
CCCN1C(=O)c2ccc(C(=O)NC3CCCCC3)cc2C1=O | -3.9 | 1 | 190 | 107 | i | 0.87 | -4
Cc1noc(C)c1COc1cccc(C(=O)OC(C)C(=O)Nc2ccc3c(c2)OCO3)c1 (configuration not stated) | -0.7 | 7 | 54 | 99 | i | 0.68 | -8
COC(=O)Nc1nnc(COc2ccccc2)s1 | x | x | x | 101 | i | 0.9 | x
O=C(Nc1cccc([N+](=O)[O-])c1)N1CCN(c2ccccc2)CC1 | x | x | x | 106 | i | 1.1 | -2
Cc1cc2oc(=O)cc(CN3CCCCC3)c2cc1C(C)C | -0.7 | 19 | 128 | 106 | i | 1 | -5
CC(=O)c1sc(NC(=O)COc2ccc(C(C)C)c(C)c2)nc1C | x | x | x | 61 | i | 1 | 1
Cc1ccc(-n2c3c(cc(C(=O)N4CCN(C)CC4)c2=O)C(=O)CC(C)(C)C3)cc1 | -1.0 | x | x | 108 | i | 0.86 | 0
Cc1cc(N)n(-c2ccccc2C)n1 | x | x | x | 102 | i | 0.96 | -6
Cc1csc2c(N3CCN(C(=O)c4ccc(C(C)(C)C)cc4)CC3)ncnc12 | x | x | x | 100 | i | 1.1 | x
CCOC(=O)CNC(=O)CSc1nnc(-c2ccc(OC)cc2)n1CC | -2.1 | 53 | 143 | 106 | i | 1 | -7
COC(=O)c1c(NC(=O)c2nc3nc(C)cc(C(F)F)n3n2)sc2c1CCC2 | -1.6 | 23 | 178 | 103 | i | 0.82 | 10
Cc1ccsc1/C=N\NC(=O)Cn1nnc2ccccc21 | -1.7 | x | x | 99 | i | 0.81 | 6
COC(=O)CCCCCCCCC(O)CN(C)C (configuration not stated) | x | x | x | 103 | i | 0.94 | x
COc1cc(C(=O)CSc2nncn2C)cc(OC)c1OC | 1.0 | 39 | 71 | 99 | x | x | -3
CC(/C=C/c1ccc2c(c1)OCO2)=N/NC(=O)COc1ccc(C)cc1 | -0.8 | x | x | 105 | i | 0.95 | 2
COc1ccc(-n2c3c(cc(C(=O)Nc4ccc(C)cc4)c2=O)C(=O)CCC3)cc1 | -2.6 | 35 | 83 | x | i | 0.84 | -4
CC(=O)c1ccc(NC(=O)CN2C(=O)/C(=C/C=C/c3ccccc3)SC2=S)cc1 | -0.4 | 12 | 147 | 100 | i | 0.86 | -10
COC(=O)c1cc2c(-c3ccccc3)cc3ccccn3c-2c1C(=O)OC | -0.9 | -105 | 76 | 99 | i | 1.3 | 1
COc1ccc(CNC(=O)c2cccc3c2C(=O)N(Cc2cccnc2)C3)cc1 | 0.5 | x | x | 100 | i | 1 | 2
Cc1ccc(S(=O)(=O)N2CCC[C@H]2C(=O)OCC(=O)c2ccc3c(c2)NC(=O)CO3)cc1 | x | x | x | 101 | i | 1.5 | x
COc1cc2c(cc1OC)[C@H](C)N(C(=S)Nc1ccc(F)cc1)CC2 | x | x | x | 105 | i | 0.89 | x
CCOc1ccccc1Nc1nc(N)nc(CSc2nccc(C)n2)n1 | -2.6 | 0 | 77 | 100 | i | 0.91 | 11
CCCCOC(=O)n1c(=O)oc2ccccc21 | -1.8 | -17 | 117 | 101 | i | 0.94 | -8
CC1CCc2c(sc(NC(=O)c3ccc(Cn4cc([N+](=O)[O-])cn4)o3)c2C#N)C1 (configuration not stated) | -1.4 | 6 | 165 | 90 | i | 0.82 | 1
Cc1ccc2c(c1)nnn2C1CCN(S(=O)(=O)c2ccc3ccccc3c2)CC1 | -2.3 | 45 | 187 | 107 | i | 1.2 | 4
CO/N=C/C(=N\Nc1ccccc1)C(=O)c1ccccc1 | x | 8 | 107 | 100 | i | 1 | -3
CCS(=O)(=O)N1CCN(CC(=O)NC2CCCCC2)CC1 | x | x | x | 109 | i | 1 | -6
CCOC(=O)Cc1csc(NC(=O)c2c(O)c3ccccc3n(CC(C)C)c2=O)n1 | 6.7 | x | x | 102 | i | 0.66 | 0
CCOC(=O)Cn1c(=O)oc2cc(S(=O)(=O)NCC3CCCO3)ccc21 (configuration not stated) | -3.1 | x | x | 103 | i | 1.1 | 8
N#Cc1ccc(CSc2nnc(-c3ccccc3)n2Cc2ccco2)cc1 | -3.1 | -38 | 75 | 102 | i | 0.94 | -3

Single records, from the list above.
CCOc1ccccc1Nc1nc(N)nc(CSc2nccc(C)n2)n1 across the screens: GALR2 ag = -2.6; INS promoter inh = 0; INS promoter inh cell count = 77; RGS16-Gao = 100; HSV augment = i; HSV augment primary fold = 0.91; PKD1 inh = 11
CCOC(=O)Cn1c(=O)oc2cc(S(=O)(=O)NCC3CCCO3)ccc21 (configuration not stated) across the screens: GALR2 ag = -3.1; INS promoter inh = x; INS promoter inh cell count = x; RGS16-Gao = 103; HSV augment = i; HSV augment primary fold = 1.1; PKD1 inh = 8

Next section
SMILES | GALR2 ag | INS promoter inh | INS promoter inh cell count | RGS16-Gao | HSV augment | HSV augment primary fold | PKD1 inh
Cc1nc2ccc(S(=O)(=O)NC(C(=O)N3CCC(C)CC3)C(C)C)cc2s1 (configuration not stated) | 1.1 | x | x | 96 | i | 0.88 | -10
O=C(c1ccccc1)C1CCN(C(=O)c2cccs2)CC1 | x | x | x | 103 | i | 0.9 | x
CCOc1cc(CN2CCCCC2)ccc1OC | -3.1 | 27 | 82 | 100 | i | 0.89 | -5
Cc1cc(C)c(S(=O)(=O)Nc2c(C)[nH]c(=O)[nH]c2=O)c(C)c1 | -2.2 | x | x | 102 | i | 0.99 | 3
Cc1cc(NS(=O)(=O)c2ccc(NC(=S)NC(=O)c3ccc(Cl)cc3Cl)cc2)no1 | -3.1 | 54 | 107 | 102 | i | 0.9 | 1
COc1ccc(NC(=O)C2=C(C)NC(=O)NC2c2ccccc2[N+](=O)[O-])cc1 (configuration not stated) | x | x | x | 93 | i | 0.98 | x
COc1ccccc1NC(=O)Cn1cnc2c(oc3ccccc32)c1=O | -2.5 | x | x | 73 | i | 0.8 | -8
CC(C)CC(=O)NC1(C(F)(F)F)C(=O)N(CC(C)C)C2=C1C(=O)CC(C)(C)C2 (configuration not stated) | -0.1 | x | x | 167 | i | 0.99 | -2
Cc1ccc2c(c1)nnn2C1CCN(CC(=O)c2ccc(Cl)cc2)CC1 | -1.9 | 42 | 127 | 99 | i | 0.94 | 0
COc1ccc2[nH]c(C)c(CCN(Cc3cccs3)C(=S)Nc3ccc(F)cc3)c2c1 | -3.7 | x | x | 97 | i | 1.2 | 7
c1ccc(Oc2nc(Oc3ccccc3)nc(N3CCOCC3)n2)cc1 | 0.4 | x | x | 99 | i | 0.96 | 0
O=C(Nc1nccs1)C1CCCN1S(=O)(=O)c1cccc2cccnc12 (configuration not stated) | -0.2 | x | x | 97 | i | 0.85 | -8
Cc1ccc(-c2n[nH]c3c2C(c2cccc(O)c2)N(c2ccc(C(=O)O)cc2)C3=O)cc1 (configuration not stated) | x | x | x | 104 | i | 1.1 | x
